# Compound activity as filed in PubChem.
# MLL AF4-AF9 inh – blocks AF4 peptide binding to human AF9; P42568; inhibition, % at 10 µM; AlphaScreen, biotin-AF4 peptide binding to FLAG-AF9; AID 651704; actives 0.47% (n = 350,000);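 active means every replicate reaching a set inhibition limit, whatever the replicate mean, cut at about 25% in these data; inconclusive means mean inhibition reaches that limit but some replicates miss it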;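 further: 0% = plate neutral control median and 100% = total signal loss; the record names both 10 and 1 µM as test concentration; the first replicate is given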
# Target sequence (P42568 whole entry, looked up): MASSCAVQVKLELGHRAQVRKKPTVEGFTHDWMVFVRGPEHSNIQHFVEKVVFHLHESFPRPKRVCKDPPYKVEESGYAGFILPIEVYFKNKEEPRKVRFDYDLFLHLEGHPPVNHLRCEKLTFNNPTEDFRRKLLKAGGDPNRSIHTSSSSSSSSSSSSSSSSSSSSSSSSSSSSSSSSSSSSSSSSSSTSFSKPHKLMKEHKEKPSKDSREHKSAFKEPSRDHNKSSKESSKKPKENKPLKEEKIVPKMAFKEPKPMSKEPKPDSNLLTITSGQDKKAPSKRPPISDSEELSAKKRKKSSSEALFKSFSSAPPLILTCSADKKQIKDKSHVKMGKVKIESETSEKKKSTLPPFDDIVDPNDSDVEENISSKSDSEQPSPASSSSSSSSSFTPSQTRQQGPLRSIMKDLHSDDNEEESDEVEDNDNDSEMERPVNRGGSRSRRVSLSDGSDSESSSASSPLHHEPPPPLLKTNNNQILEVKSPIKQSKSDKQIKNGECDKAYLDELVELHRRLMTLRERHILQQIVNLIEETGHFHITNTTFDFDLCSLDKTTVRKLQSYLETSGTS
# Beta cell apopt – beta cell apoptosis inhibition; actives 0.8% (n = 300,000); INS-1E cytokine-induced death, ATP luminescence, 48 h; percent of positive-control rescue, neutral wells zero; AID 435005; protection from apoptosis, % (no concentration beside the values);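 active means all replicates at 75% or more, or half of them and the mean; inconclusive means half reach 75% but not the mean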;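 further: 0% = cytokine-treated negative control wells and 100% = positive control rescue; higher means more ATP so stronger rescue from cytokine killing; wells of about 40 µL received 100 nL stock; the first replicate is given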
# Vif A3G – HIV-1 Vif–A3G interaction blockers – biochemical, TR-FRET, GST-Vif 1-94, biotin-A3G peptide, dose response retest, primary screen (AID 1117319); TR-FRET GST-Vif / biotin-A3G peptide binding; higher % means a stronger effect; test concentration not given here; strong numbers were not always called active; inhibition, %, or IC50 in µM where a hit was titrated; actives 0.57% (n = 260,000);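 active means above the screen mean plus three standard deviations and confirmed in dose response; inconclusive means results disagree or hit not tested in dose response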;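 further: Vif residues 1-94 fused to GST binding biotinylated APOBEC3G peptide 110-148; 0% = full assay without inhibitor and 100% = GST in place of GST-Vif; retest series ran down from 100 µM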
# Bfl-1 A1 inh – inhibitors of the anti-apoptotic protein A1, read as caspase activation | MEF A1-2A-BIM cells, Caspase-Glo 3/7 luminescence, 3 h; percent of clofoctol response, vehicle zero | caspase activation, % (concentration not given with the values) | actives 0.066% (n = 330,000) | AID 2462;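 active means over half of replicate activation scores above 10%, or exactly half above 10 with the replicate mean above 10; inconclusive means replicate mean below 10 yet half the replicates above 10; inactive means over half of replicates below 10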;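 further: wells of about 30 µL received 50 nL stock; many hits fall short of the cut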
# Ecoli rRNA inh – inhibits bacterial ribosomal RNA function over humanized ribosomes; E. coli WT GFP vs humanized-ribosome RFP mutants, fluorescence, 24 h; hits give low values; DMSO median 0, no signal -100; GFP signal change (wild-type ribosome), % (concentration not given with the values); actives 1.6% (n = 350,000); AID 720706;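 active means significant combined selectivity score with lowered wild-type GFP, culture density cut under 30%, mutant RFP and density less affected; inactive means any of these conditions unmet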; further: one replicate is shown; some compounds called inactive have numbers as strong as hits
# RanGTP-Impb inh – inhibitors of RanGTP-importin-beta interaction, primary screen, biochemical, FRET, CFP-Ran, YFP-importin-beta, homogeneous. actives 1.1% (n = 300,000). inhibition, % (no concentration beside the values). cell-free CFP-Ran/YFP-importin-beta FRET ratio;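 active means most replicates above 15%; inconclusive means exactly half above 15%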;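 further: 0% = DMSO wells and 100% = Ran loaded with GDP instead of GTP; wells of about 40 µL received 100 nL stock; the first replicate is given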
# T cruzi inh – T. cruzi replication inhibition | inhibition, % (no concentration beside the values) | actives 1.4% (n = 300,000) | T. cruzi beta-gal in NIH3T3, luminescence, 90 h | AID 1885;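 active means mean inhibition across valid replicates above about 55%, limit read from the data; inconclusive means mean below that limit but half or more replicates reach it; inactive means mean below it, under half of replicates reach it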;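 further: signal also drops with host cell toxicity which is not excluded here; 0% = plate median of DMSO wells and 100% = zero luminescence signal; higher percent means less beta-gal luminescence so fewer parasites; stock transfer was 50 nL into about 50 µL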
# Calb FLC – C. albicans growth modulation with fluconazole. growth inhibition, % (test concentration not listed). C. albicans CaCi-2 (fluconazole-resistant clinical isolate) + fluconazole, Alamar Blue growth, 48 h. actives 0.57% (n = 300,000);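 active means most replicates above 75%; inconclusive means exactly half above 75%; inactive means most below 75%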;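 further: all wells also contain fluconazole at 8 µg/ml as a sub-toxic cotreatment; 0% = median of DMSO wells and 100% = median of geldanamycin control wells; wells of about 8 µL received 7.5 nL stock; the first replicate is given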
# Ecoli rRNA inh OD600 – recorded beside Ecoli rRNA inh, whose call it bears; OD600 change, %; measured here: OD600 growth;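 optical density of the mix in the first replicate; 0 = DMSO median and -100 = no signal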
# Ecoli rRNA inh RFP – further read-out of Ecoli rRNA inh, marked with its call; RFP signal change, %; measured here: RFP humanized mutant strains;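 first replicate; 0 = DMSO median and -100 = no signal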
# * hit, by the source's call; ? = inconclusive; . = not tested or not shown; & = joins results of further samples. A portion of the library, so the mix of outcomes need not match the whole.
item	canonical_smiles	MLL AF4-AF9 inh	Beta cell apopt	Vif A3G	Bfl-1 A1 inh	Ecoli rRNA inh	Ecoli rRNA inh OD600	Ecoli rRNA inh RFP	RanGTP-Impb inh	T cruzi inh	Calb FLC
1	Cc1cccc(N2CCN(C(=O)C(Cc3ccccc3)n3cccc3)CC2)c1C (centres undefined)	-5.5	0	0%	1.2	1	-18	-0.9	-1.1	49	-5
2	Clc1ccc(C[n+]2cc(-c3ccc(Cl)cc3)n3c2CCC3)cc1	4.4	8	-3%	-0.2	-42	-50	-12	7.0	52	-16
3	Cc1ccc2c(C)[nH]c(=O)cc2c1	.	15	0%	0.4	.	.	.	1.6	-12	-3
4	Cc1onc(-c2ccccc2)c1C(=O)N1CCN(S(=O)(=O)c2ccc(OC(F)(F)F)cc2)CC1	-12	.	-4%	-0.3	1	10	2.1	7.1	5	1
5	COc1ccccc1N1CCN(CC(O)COc2ccc3c(C)cc(=O)oc3c2)CC1 (centres undefined)	.	-4	18%	0.6	.	.	.	3.7	8	0
6	OCCNc1nc2ccc(Cl)cc2[nH]1	.	-7	22%	-0.3	.	.	.	1.7	-1	7
7	COc1cc(OC)cc(C(=O)NCC(=O)OCC(=O)/C=C2/N(C)c3ccccc3C2(C)C)c1	3.0	28	-6%	-0.2	-22	-11	59	1.3	14	12
8	CN1C2C=C3C(C#N)=C(N)C(C#N)(C#N)[C@@H](c4ccsc4)[C@@H]3C1CC2 (some centres undefined)	.	-3	13%	?	.	.	.	-4.3	18	2
9	Cc1cccc(OCCC(=O)Nc2ccc(S(=O)(=O)N3CCCC3)cc2)c1	.	.	1%	1.5	.	.	.	-0.9	12	7
10	COc1ccc(OC)c(S(=O)(=O)Nc2cccc3ccccc23)c1	0.2	-11	.	0.0	-25*	-4.3*	2.7*	2.3	13	10
11	CCN1C(=O)[C@H]2[C@@H](c3ccc(-c4ccc5c(c4)OCO5)c(OC)c3)N[C@@](CC(C)C)(C(=O)OC)[C@H]2C1=O	-7.0	-3	.	0.7	5	2	-3.3	-2.6	16	-2
12	O=C(Cc1c[nH]c2ccccc12)N1CCc2ccccc21	.	1	-1%	-2.7	.	.	.	1.0	4	-4
13	CC(C)OC1(c2ccccc2)OC(=O)c2ccccc21 (centres undefined)	0.9	-5	-7%	0.4	-4	3	8.9	1.6	4	-6
14	Cc1ccc(C)n1NC(=O)c1ccco1	.	-3	?	-0.5	.	.	.	-1.8	-4	0
15	O=C(CCc1ccccc1)NNC(=O)Nc1ccccc1	-3.3	3	-2%	0.2	10	-3	0.3	-2.9	-8	-2
16	C(=C\c1cc(/C=C/c2ccccc2)ncn1)/c1ccccc1	.	-14	-6%	-1.4	.	.	.	-5.3	6	9
17	COc1ccc2cc(C)c(SCC(=O)Nc3cc(C)on3)nc2c1	.	.	-8%	0.6	.	.	.	6.8	17	1
18	O=C(CC(=O)N/N=C/c1ccc(Cl)cc1Cl)NCc1ccccc1	.	3	-4%	0.5	9	13	-0.7	5.4	4	3
19	O=C(CSc1nnc2n1CCCN2C(=S)Nc1ccc(Cl)cc1)c1ccccc1	.	-5	-2%	0.2	.	.	.	-2.6	-3	-9
20	Cc1noc(C)c1NC(=O)Nc1cccc2c1O[C@H](CN(C)C(=O)NC(C)C)[C@@H](C)CN([C@H](C)CO)C2=O	-2.1	-1	.	-0.5	1&14	3&7	-2.7&3.3	.	.	.

# By substructure: the compounds so far containing an aryl thioether with sulfur outside any ring
item	canonical_smiles	MLL AF4-AF9 inh	Beta cell apopt	Vif A3G	Bfl-1 A1 inh	Ecoli rRNA inh	Ecoli rRNA inh OD600	Ecoli rRNA inh RFP	RanGTP-Impb inh	T cruzi inh	Calb FLC
17	COc1ccc2cc(C)c(SCC(=O)Nc3cc(C)on3)nc2c1	.	.	-8%	0.6	.	.	.	6.8	17	1
19	O=C(CSc1nnc2n1CCCN2C(=S)Nc1ccc(Cl)cc1)c1ccccc1	.	-5	-2%	0.2	.	.	.	-2.6	-3	-9

# New compounds follow.
item	canonical_smiles	MLL AF4-AF9 inh	Beta cell apopt	Vif A3G	Bfl-1 A1 inh	Ecoli rRNA inh	Ecoli rRNA inh OD600	Ecoli rRNA inh RFP	RanGTP-Impb inh	T cruzi inh	Calb FLC
21	O=C(NCc1cccc(F)c1)C1CCC(=O)N(CC2CCCCC2)C1 (centres undefined)	-1.3	-3	.	0.4	2	16	1.4	1.7	-25	-24
22	Cc1c(NC(=O)c2ccc(-c3ccc([N+](=O)[O-])cc3Cl)o2)c(=O)n(-c2ccccc2)n1C	1.7	17	5%	0.7	-22*	-2.3*	1.2*	1.8	56*	13
23	Nc1cc(C(=O)N2CCCC2)cc(C(=O)N2CCCC2)c1	.	.	6%	0.6	.	.	.	?	-21	12
24	COc1ccc(CNC(=O)COC(=O)CCc2nc3ccccc3c(=O)[nH]2)cc1	1.4	-2	3%	0.8	21	26	13	0.4	-5	41
25	COc1ccc(NC(=O)C2CCC(=O)N2S(=O)(=O)c2ccc(C)cc2)c(OC)c1 (centres undefined)	.	6	1%	-0.1	.	.	.	.	6	-11
26	COc1ccc(/C=C2\CCCC3C2=NN(C(=O)CSc2ncn[nH]2)C3c2ccc(OC)cc2)cc1 (centres undefined)	8.2	-17	5%	1.0	-2	-9	-1.5	3.5	24	-5
27	Cn1c(O)c(N=Nc2nc(-c3ccccc3)cs2)c2ccccc21	.	-1	-1%	-0.1	.	.	.	4.0	-16	7
28	Cc1ccc(-n2cc(CN3CCN(C(=O)c4ncn[nH]4)CC3)c(-c3ccc(F)cc3)n2)cc1	0.3	-6	23%	0.2	-4	-3	-0.1	-4.1	8	53
29	Nc1nonc1-n1nnc(C(=O)N/N=C/c2cccs2)c1-c1ccc2c(c1)OCO2	-1.8	4	.	0.2	0	3	0.0	7.9	-3	0
30	Cc1cc(C)c(Cn2c(=O)n(CCCC(=O)NCc3ccco3)c(=O)c3ccccc32)c(C)c1	.	9	-6%	0.1	.	.	.	-1.5	-2	-13
31	NC(=O)COC(=O)c1ccccc1Oc1ccccc1	-1.1	0	-2%	0.6	4	2	-0.3	7.1	3	-9
32	O=C(C1CCC1)N1CCN(Cc2ccccc2)CC1	.	-1	5%	0.1	.	.	.	-0.1	1	-7
33	COc1ccccc1Oc1ccc(Oc2ccccc2OC)cc1	-6.0	5	0%	0.9	-14	-15	-5.1	-0.1	15	0
34	Cc1ccc(NC(=O)CCN2C(=O)C3C4CCC(C4)C3C2=O)cc1Cl (centres undefined)	-0.8	-4	.	-0.8	1	-1	0.7	-1.4	-1	13
35	Cc1cccc(OCCC(=O)OC(C)C(=O)Nc2ccc(Cl)cn2)c1 (centres undefined)	-1.6	-6	3%	1.7	-1	-1	7.6	-1.5	0	-1
36	CS(=O)(=O)N1CCC(CO)(Cc2ccccc2C(F)(F)F)CC1	-0.5	-5	.	0.7	0	-6	6.1	2.4	-4	-7
37	Cc1ccc(-n2nc3c(c2NC(=O)c2ccco2)CS(=O)(=O)C3)cc1C	-3.6	-2	.	-0.6	6	2	0.7	0.6	-1	-7
38	COc1ccc(C(=O)Nc2ccc3c(c2)OCCO3)cc1Br	1.2	.	.	-3.7	4	3	-0.5	-0.5	4	-3
39	CN(C(=O)c1coc(=O)c2ccccc12)c1ccc(F)cc1	.	0	1%	0.0	.	.	.	-2.1	-6	3
40	O=C(O)CC(c1ccccc1)n1cccc1 (centres undefined)	.	-7	0%	-0.6	.	.	.	-4.4	-1	2

# The results go on.
item	canonical_smiles	MLL AF4-AF9 inh	Beta cell apopt	Vif A3G	Bfl-1 A1 inh	Ecoli rRNA inh	Ecoli rRNA inh OD600	Ecoli rRNA inh RFP	RanGTP-Impb inh	T cruzi inh	Calb FLC
41	CCOC(=O)c1ccc(NC(=O)CC2C(=O)N(c3ccccc3)C(=O)N2CCCOC)cc1 (centres undefined)	.	-1	23%	0.2	.	.	.	2.2	2	19
42	Cc1ccc(OCC(O)CN2CCN(c3ccc(C)cc3)CC2)cc1 (centres undefined)	2.6	-8	.	-0.3	-2	-7	-3.0	-1.6	7	-1
43	CNC(=O)C1CC(=O)N/C(=N/N=C(\C)c2cccs2)S1 (centres undefined)	.	-1	-4%	0.6	.	.	.	?	-9	14
44	O=C(C1=C[C@H](c2csc3ccccc23)C[C@H](OCc2ccc(CO)cc2)O1)N1CCCCCCC1	6.3	-2	.	-2.4	7	5	-1.5	7.2	30	9
45	COc1ccc(C)cc1Nc1c2c(nc3ccccc13)CCC2	7.5	21	38%	0.5	-14	-27	-2.3	-1.0	44	-3
46	COC(=O)c1cn(NC(=O)c2ccc3c(c2)OCO3)c(=O)c2ccccc12	.	2	-4%	0.5	.	.	.	-3.8	50	-2
47	CCOC(=O)C1CCN(C(=O)CCS(=O)(=O)Cc2ccccc2)CC1	-3.2	-5	.	0.0	12	13	2.5	2.3	-6	4
48	CC1CCc2onc(C(=O)NCc3ccco3)c2C1 (centres undefined)	0.0	-7	8%	-0.6	-1	1	0.1	-2.9	-4	-2
49	O=C(NNC(=S)NCc1ccco1)C(c1ccccc1)c1ccccc1	-1.2	-11	5%	1.3	-55	-76	-26	-5.0	1	16
50	Cc1cc2nccc(-c3ccc(Cl)c([N+](=O)[O-])c3)n2n1	4.7	4	-2%	-0.3	10	18	0.3	1.3	-5	-14
51	COc1cccc(CN2C(=O)[C@H]3Cc4c([nH]c5ccccc45)C(C)(C)N3C2=O)c1	5.1	-2	.	-0.4	-8	-28	31	-1.9	13	31
52	O=C(NCCCNC(=O)c1cc(Cl)ccc1Cl)c1cnccn1	0.6	-1	.	-0.5	2	9	0.6	?	1	2
53	O=C(Nc1ccn(-c2ccccc2)n1)c1ccc(S(=O)(=O)N2CCCCCC2)cc1	.	7	21%	-0.1	.	.	.	3.4	42	33
54	CCNC(=S)NCCN1CCCCC1	.	-3	-6%	1.0	.	.	.	-2.1	-9	4
55	CCOc1cc(C(=S)N2CCOCC2)ccc1OS(=O)(=O)c1ccccc1	.	-3	?	0.1	.	.	.	1.0	-20	10
56	N#Cc1cccnc1N1CCN(C(=O)c2cccc3c2C(=O)c2ccc(Cl)cc2S3(=O)=O)CC1	-44	2	.	1.6	-2	0	-5.0	.	.	.
57	Cc1ccc(Cl)cc1N1CCN(C(=O)C2CCN(S(=O)(=O)c3c(C)nn(C)c3C)CC2)CC1	.	6	-2%	0.6	.	.	.	-1.3	-6	-4
58	CCC1(c2ccccc2)NC(=O)N(CC(=O)NNC(=O)c2ccoc2C)C1=O (centres undefined)	0.6	0	-8%	0.5	2	2	-0.7	1.2	1	5

# Single entries from the results shown.
# O=C(NCCCNC(=O)c1cc(Cl)ccc1Cl)c1cnccn1 – Beta cell apopt = -1
# CCNC(=S)NCCN1CCCCC1 – Bfl-1 A1 inh = 1.0
